# HIV Env fusion – blocks HIV Env-driven cell-cell fusion; HeLa-JRFL Env/CEM21 cell fusion, luciferase; inhibition, % at 12.3 µM; 360,000 tested, 1.1% active; AID 651610;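 active = mean replicate inhibition score of at least 50 and every replicate individually at or above 50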;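 note: 0% = plate neutral controls and 100% = maraviroc near 300 nM; one replicate is shown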
# Yeast UUG start – modulators of start codon recognition fidelity in yeast | activity score, % at 18.7 µM | AID 602363 | S. cerevisiae UUG-firefly luciferase reporter, luminescence/redox ratio | 350,000 tested, 0.13% active;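 active = replicate mean at a twofold rise or more, about +100% in these data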;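 note: firefly luciferase made from a UUG start codon reports start codon fidelity; reporter light over untreated wells divided by growth signal over untreated wells; some hits fall short of that in this replicate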
# * marks the source's active call; other numbers are inactive results; [ ] = remark or other dose.
SMILES,HIV Env fusion,Yeast UUG start
CN1C(=O)c2cc(NC(=O)c3cscn3)ccc2OC[C@H]2O[C@@H](CC(=O)N3CCOCC3)CC[C@H]21,-10.4[16.7 µM],-9.4
Cc1noc(C)c1NC(=O)N[C@H]1C=C[C@H](CC(=O)NCc2ccc(Cl)c(Cl)c2)O[C@H]1CO,22.0[16.7 µM],-6.2
C/C=C/c1cnc2c(c1)C(=O)N([C@H](C)CO)C[C@H](C)[C@H](CN(C)C(=O)c1cnccn1)O2,-10.5[16.7 µM],137.3*
CO[C@@H]1CN(C)C(=O)c2cc(NC(=O)Nc3ccccc3Cl)ccc2OC[C@H](C)NC[C@H]1C,11.6[16.7 µM],-0.3
COc1ccccc1S(=O)(=O)N(C)C[C@H]1Oc2cc(C#CCC3CCCC3)ccc2S(=O)(=O)N([C@H](C)CO)C[C@@H]1C,27.9[16.7 µM],-13.4
CCCNC(=O)N(C)C[C@@H]1Oc2cc(C#C[C@@H](C)O)ccc2S(=O)(=O)N([C@H](C)CO)C[C@@H]1C,11.5[16.7 µM],0.2
O=C(C[C@H]1C=C[C@@H](NC(=O)Nc2ccc(F)cc2)[C@@H](CO)O1)NCc1ccccn1,31.1[16.7 µM],-21.1
CC(C)NC(=O)N(C)C[C@H]1Oc2ncc(C#CC3CCCCC3)cc2C(=O)N([C@H](C)CO)C[C@@H]1C,5.6[16.7 µM],22.8
C[C@@H]1CCCCO[C@@H](CN(C)C(=O)NC2CCCCC2)[C@H](C)CN([C@H](C)CO)C(=O)c2cc(NC(=O)CCC(F)(F)F)ccc2O1,-9.1[16.7 µM],16.8
C[C@@H]1CN([C@@H](C)CO)C(=O)c2cc(NC(=O)c3ccncc3)ccc2O[C@@H](C)CCCCO[C@H]1CN(C)S(=O)(=O)c1ccc(F)cc1,2.9[16.7 µM],-5.5
C[C@@H]1CN([C@H](C)CO)C(=O)c2cc(NC(=O)C3CCCCC3)ccc2O[C@@H](C)CCCCO[C@@H]1CN(C)S(=O)(=O)c1ccccc1,-15.0[16.7 µM],-5.1
Cc1noc(C)c1S(=O)(=O)Nc1ccc2c(c1)C(=O)N([C@@H](C)CO)C[C@@H](C)[C@@H](CN(C)S(=O)(=O)c1ccc(F)cc1)OCCCC[C@H](C)O2,-17.1[16.7 µM],-9.1
CCCN(C)C[C@@H]1Oc2cc(C#Cc3ccncc3)ccc2S(=O)(=O)N([C@H](C)CO)C[C@@H]1C,-12.3[16.7 µM],-5.3
C[C@@H]1CN([C@@H](C)CO)C(=O)Cc2cc(NS(=O)(=O)c3cccs3)ccc2O[C@H]1CN(C)Cc1ccc(Cl)c(Cl)c1,61.4*[16.7 µM],4.6
COCC(=O)Nc1ccc2c(c1)C(=O)N(C)[C@@H]1CC[C@H](CC(=O)NC3CCCC3)O[C@@H]1CO2,20.8[16.7 µM],-20.7
CC(C)NC(=O)N(C)C[C@H]1Oc2c(NC(=O)Nc3ccc4c(c3)OCO4)cccc2C(=O)N([C@H](C)CO)C[C@H]1C,16.8[16.7 µM],5.8
CC(C)NC(=O)N[C@H]1CC[C@H](CCNS(=O)(=O)c2ccc(F)cc2)O[C@@H]1CO,22.5[16.7 µM],4.4
N#C[C@H]1[C@H](c2ccc(-c3cccc(F)c3)cc2)[C@@H](CO)N1C(=O)c1cccnc1,10.4[16.7 µM],-13.2
C[C@@H]1CN([C@H](C)CO)C(=O)c2cccc(NS(=O)(=O)c3ccccc3)c2O[C@H]1CN(C)S(=O)(=O)c1cn(C)cn1,3.6[16.7 µM],-5.4
C[C@H]1CCCCO[C@H](CN(C)Cc2ccncc2)[C@@H](C)CN([C@@H](C)CO)C(=O)c2cc(NC(=O)C3CCCCC3)ccc2O1,-5.9[16.7 µM],-2.8
CCCN(C)C[C@@H]1Oc2cc(C#CC(C)(C)O)ccc2S(=O)(=O)N([C@@H](C)CO)C[C@@H]1C,9.8[16.7 µM],8.4
Cc1noc(C)c1NC(=O)Nc1ccc2c(c1)CC(=O)N([C@H](C)CO)C[C@H](C)[C@H](CN(C)Cc1ccc3c(c1)OCO3)O2,-64.5[16.7 µM],-9.2
C[C@H](CO)N1C[C@H](C)[C@H](CN(C)CC2CC2)Oc2ccc(NC(=O)Nc3ccccc3)cc2CC1=O,47.5[16.7 µM],-14.3
CC(C)CC#Cc1cnc2c(c1)C(=O)N([C@H](C)CO)C[C@H](C)[C@@H](CN(C)C(=O)Nc1cc(F)ccc1F)O2,1.0[16.7 µM],11.9
Cc1noc(C)c1NC(=O)N[C@H]1CC[C@@H](CCNC(=O)C2CCOCC2)O[C@@H]1CO,0.3[16.7 µM],7.3
COc1ccc(S(=O)(=O)Nc2ccc3c(c2)CC(=O)N([C@@H](C)CO)C[C@@H](C)[C@@H](CN(C)C(=O)NC(C)C)O3)cc1,5.7[16.7 µM],-7.4
O=C(Nc1cc(Cl)cc(Cl)c1)N[C@@H]1CC[C@@H](CCNS(=O)(=O)c2cccc(F)c2)O[C@H]1CO,17.5[16.7 µM],0.0
COc1ccc(S(=O)(=O)N(C)C[C@H]2OCCCC[C@@H](C)Oc3ccc(NC(=O)C4CCCCC4)cc3C(=O)N([C@@H](C)CO)C[C@H]2C)cc1,-27.2[16.7 µM],-0.9
CC(C)CC#Cc1ccc2c(c1)O[C@@H](CN(C)S(=O)(=O)c1cccc(F)c1)[C@H](C)CN([C@@H](C)CO)S2(=O)=O,52.0[16.7 µM],-2.4
Cc1noc(C)c1NC(=O)Nc1cccc2c1O[C@@H](CN(C)C(=O)Nc1c(C)noc1C)[C@H](C)CN([C@H](C)CO)C2=O,-15.3[16.7 µM],7.9
C[C@@H]1CN([C@H](C)CO)C(=O)c2cc(NC(=O)NC3CCCCC3)ccc2O[C@@H]1CN(C)Cc1ccc(-c2ccccc2)cc1,21.6[16.7 µM],31.2
CC(C)CC#Cc1cnc2c(c1)C(=O)N([C@@H](C)CO)C[C@@H](C)[C@@H](CN(C)C(=O)CCN1CCCCC1)O2,-5.1[16.7 µM],-5.6
C[C@@H]1CN([C@H](C)CO)C(=O)c2cccc(NC(=O)Nc3cccc4ccccc34)c2O[C@H]1CN(C)C(=O)Nc1ccc(C(F)(F)F)cc1,18.5[16.7 µM],4.8
CC(=O)N(C)C[C@@H]1Oc2ncc(-c3cccc(F)c3)cc2C(=O)N([C@H](C)CO)C[C@@H]1C,15.2[16.7 µM],8.9
Cc1ccc(S(=O)(=O)N(C)C[C@H]2Oc3c(NS(=O)(=O)c4cccs4)cccc3C(=O)N([C@@H](C)CO)C[C@H]2C)cc1,-63.1[16.7 µM],-1.1
CN(C)C(=O)C[C@@H]1C[C@H]2c3cc(NC(=O)C4CCOCC4)ccc3O[C@H]2[C@@H](CO)O1,5.9[16.7 µM],-0.6
Cc1ccc(S(=O)(=O)N(C)C[C@@H]2Oc3c(NC(=O)Nc4ccccc4)cccc3C(=O)N([C@H](C)CO)C[C@@H]2C)cc1,11.0[16.7 µM],-5.2
C[C@@H]1CN([C@H](C)CO)C(=O)c2cc(NS(=O)(=O)c3ccc(Cl)cc3)ccc2O[C@@H](C)CCCCO[C@H]1CN(C)C(=O)Nc1ccccc1,-30.1[16.7 µM],1.4
Cc1noc(C)c1NC(=O)N(C)C[C@@H]1Oc2ccc(NC(=O)Cc3ccccc3)cc2CC(=O)N([C@H](C)CO)C[C@@H]1C,-1.4[16.7 µM],19.2
Cc1noc(C)c1S(=O)(=O)Nc1ccc2c(c1)CC(=O)N([C@H](C)CO)C[C@H](C)[C@H](CN(C)S(=O)(=O)c1ccc(Cl)cc1)O2,8.2[16.7 µM],4.8
C[C@@H]1CCCCO[C@@H](CN(C)CC2CCCCC2)[C@@H](C)CN([C@H](C)CO)C(=O)c2cc(NC(=O)CCCN(C)C)ccc2O1,-17.0[16.7 µM],9.7
CCCC(=O)Nc1ccc2c(c1)C(=O)N(C)[C@H]1CC[C@@H](CC(=O)NCCN3CCCCC3)O[C@@H]1CO2,-15.6[16.7 µM],-2.5
COc1ccc([Si](C)(C)[C@H]2[C@H](CCO)O[C@@]3(C(=O)N(Cc4ccc(NC(C)=O)cc4)c4ccccc43)[C@@H]2C)cc1,9.8[16.7 µM],7.3
C[C@@H]1CCCCO[C@@H](CN(C)Cc2ccc(Cl)c(Cl)c2)[C@H](C)CN([C@@H](C)CO)C(=O)c2cc(NC(=O)Nc3ccc4c(c3)OCO4)ccc2O1,14.8[16.7 µM],1.5
CC(=O)N(C)C[C@@H]1Oc2ncc(C#Cc3ccccc3F)cc2C(=O)N([C@H](C)CO)C[C@H]1C,0.7[16.7 µM],1.7

# An excerpt from above in order of length of the SMILES, lowest first.
SMILES,HIV Env fusion,Yeast UUG start
CC(=O)N(C)C[C@@H]1Oc2ncc(-c3cccc(F)c3)cc2C(=O)N([C@H](C)CO)C[C@@H]1C,15.2[16.7 µM],8.9
Cc1ccc(S(=O)(=O)N(C)C[C@H]2Oc3c(NS(=O)(=O)c4cccs4)cccc3C(=O)N([C@@H](C)CO)C[C@H]2C)cc1,-63.1[16.7 µM],-1.1
C[C@@H]1CCCCO[C@@H](CN(C)CC2CCCCC2)[C@@H](C)CN([C@H](C)CO)C(=O)c2cc(NC(=O)CCCN(C)C)ccc2O1,-17.0[16.7 µM],9.7
COc1ccc([Si](C)(C)[C@H]2[C@H](CCO)O[C@@]3(C(=O)N(Cc4ccc(NC(C)=O)cc4)c4ccccc43)[C@@H]2C)cc1,9.8[16.7 µM],7.3
C[C@@H]1CN([C@H](C)CO)C(=O)c2cccc(NC(=O)Nc3cccc4ccccc34)c2O[C@H]1CN(C)C(=O)Nc1ccc(C(F)(F)F)cc1,18.5[16.7 µM],4.8
Cc1noc(C)c1S(=O)(=O)Nc1ccc2c(c1)CC(=O)N([C@H](C)CO)C[C@H](C)[C@H](CN(C)S(=O)(=O)c1ccc(Cl)cc1)O2,8.2[16.7 µM],4.8
C[C@@H]1CN([C@H](C)CO)C(=O)c2cc(NS(=O)(=O)c3ccc(Cl)cc3)ccc2O[C@@H](C)CCCCO[C@H]1CN(C)C(=O)Nc1ccccc1,-30.1[16.7 µM],1.4
C[C@@H]1CCCCO[C@@H](CN(C)Cc2ccc(Cl)c(Cl)c2)[C@H](C)CN([C@@H](C)CO)C(=O)c2cc(NC(=O)Nc3ccc4c(c3)OCO4)ccc2O1,14.8[16.7 µM],1.5

# (list continues)
SMILES,HIV Env fusion,Yeast UUG start
Cc1noc(C)c1S(=O)(=O)N(C)C[C@@H]1Oc2ccc(NS(C)(=O)=O)cc2CC(=O)N([C@H](C)CO)C[C@H]1C,-12.2[16.7 µM],7.8
C[C@H]1CN([C@@H](C)CO)C(=O)Cc2cc(NS(=O)(=O)c3cccs3)ccc2O[C@@H]1CN(C)C(=O)Nc1ccccc1,3.5[16.7 µM],-0.7
Cc1ccc(S(=O)(=O)N[C@@H]2C=C[C@@H](CC(=O)NC3CCCCC3)O[C@@H]2CO)cc1,14.4[16.7 µM],-15.5
COc1ccccc1-c1cn(CC[C@H]2CC[C@@H](NC(=O)C3CCOCC3)[C@@H](CO)O2)nn1,6.1[16.7 µM],0.5
CCC(=O)Nc1ccc2c(c1)OC[C@H](C)N(C(=O)NC(C)C)C[C@@H](C)[C@H](OC)CN(C)C2=O,20.8[16.7 µM],1.1
O=C(C[C@H]1CC[C@@H](NC(=O)Cc2ccccn2)[C@@H](CO)O1)NCCCN1CCOCC1,3.1[16.7 µM],-23.1
C[C@@H]1CN([C@@H](C)CO)S(=O)(=O)c2ccc(C3=CCCC3)cc2O[C@@H]1CN(C)CC1CCOCC1,-4.3[16.7 µM],-8.0
CNC[C@H]1OCCCC[C@@H](C)Oc2ccc(NC(=O)Nc3ccccc3)cc2C(=O)N([C@H](C)CO)C[C@H]1C,-31.2[16.7 µM],22.1
C[C@@H]1CN([C@@H](C)CO)C(=O)Cc2cc(NC(=O)Cn3cnnn3)ccc2O[C@H]1CN(C)Cc1ccccc1,-0.4[16.7 µM],33.3
COCCCNC(=O)[C@@]1(Cc2ccccc2N=[N+]=[N-])N=C(c2ccc(OCCCO)cc2)O[C@H]1c1ccccc1N=[N+]=[N-],-0.1[16.7 µM],-7.4
CC(C)NC(=O)N(C)C[C@@H]1Oc2ncc(C#CC3CCCCC3)cc2C(=O)N([C@@H](C)CO)C[C@@H]1C,8.1[16.7 µM],8.2
CNC[C@H]1Oc2ccc(NC(=O)CCC(F)(F)F)cc2C(=O)N([C@H](C)CO)C[C@H]1C,-6.3[16.7 µM],-2.7
Cc1noc(C)c1S(=O)(=O)Nc1ccc2c(c1)CC(=O)N([C@H](C)CO)C[C@@H](C)[C@H](CN(C)S(=O)(=O)c1cccs1)O2,-1.6[16.7 µM],12.0
C[C@@H]1CN([C@H](C)CO)C(=O)c2cccc(NC(=O)Nc3ccc(C(F)(F)F)cc3)c2O[C@H]1CN(C)Cc1ccccc1,17.3[16.7 µM],-0.4
COc1ccc(S(=O)(=O)Nc2ccc3c(c2)CC(=O)N([C@@H](C)CO)C[C@H](C)[C@@H](CN(C)S(=O)(=O)c2cccs2)O3)cc1,6.4[16.7 µM],18.5
C[C@H]1CCCCO[C@H](CN(C)Cc2ccc3c(c2)OCO3)[C@@H](C)CN([C@@H](C)CO)C(=O)c2cc(NS(=O)(=O)c3ccc(Cl)cc3)ccc2O1,-15.5[16.7 µM],14.4
CCC(=O)N[C@@H]1CC[C@@H](CCNC(=O)Nc2ccc(F)cc2)O[C@H]1CO,0.6[16.7 µM],-9.3
C[C@@H]1CCCCO[C@H](CN(C)Cc2ccncc2)[C@@H](C)CN([C@H](C)CO)C(=O)c2cc(NC(=O)Nc3ccc4c(c3)OCO4)ccc2O1,-0.5[16.7 µM],-2.5
Cc1cccc(S(=O)(=O)N[C@@H]2CC[C@H](CCNC(=O)CCN3CCCCC3)O[C@H]2CO)c1,1.5[16.7 µM],1.9
CCCC(=O)Nc1ccc2c(c1)C(=O)N(C)[C@@H]1CC[C@@H](CC(=O)O)O[C@@H]1CO2,-47.0[16.7 µM],-11.9
C[C@H]1CN([C@@H](C)CO)C(=O)Cc2cc(NC(=O)Cn3cnnn3)ccc2O[C@@H]1CN(C)CC1CCCCC1,-26.4[16.7 µM],5.4
O=C(C[C@H]1C[C@H]2c3cc(NC(=O)C4CCC4)ccc3O[C@H]2[C@@H](CO)O1)NCc1ccc(-c2ccccc2)cc1,2.6[16.7 µM],-13.5

# From PubChem BioAssay

# An excerpt; the hit share may differ from the screen's.
